# FGF22 binding – binders of recombinant human FGF22 by thermal shift; SYPRO orange fluorescence; percent of sucrose octasulfate shift, DMSO zero; calls only at 9.99 µM; hit rate 1.5% among 340,000; Q9HCT0;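 active = melting point raised past a set limit in the mean and every replicate; inconclusive = no clear call; three in four hits are not shown here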
# Target sequence (Q9HCT0 whole entry, looked up): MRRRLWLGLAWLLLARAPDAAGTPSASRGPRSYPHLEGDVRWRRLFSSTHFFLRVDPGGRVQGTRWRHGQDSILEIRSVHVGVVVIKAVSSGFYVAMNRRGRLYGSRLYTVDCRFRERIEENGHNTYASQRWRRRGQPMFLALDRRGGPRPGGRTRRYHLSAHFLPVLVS
# Beta apoptosis – beta cell apoptosis inhibition; protection from apoptosis, % (concentration not given with the values); hit rate 0.8% among 300,000; INS-1E cytokine-induced death, ATP luminescence, 48 h; percent of positive-control rescue, neutral wells zero;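 active = all replicates at 75% or more, or half of them and the mean; inconclusive = half reach 75% but not the mean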;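 also: 0% = cytokine-treated negative control wells and 100% = positive control rescue; higher means more ATP so stronger rescue from cytokine killing; wells of about 40 µL received 100 nL stock; the first replicate is given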
# A1 inh – inhibitors of the anti-apoptotic protein A1, read as caspase activation. hit rate 0.066% among 330,000. AID 2462. caspase activation, % (no concentration beside the values). MEF A1-2A-BIM cells, Caspase-Glo 3/7 luminescence, 3 h; percent of clofoctol response, vehicle zero;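 active = over half of replicate activation scores above 10%, or exactly half above 10 with the replicate mean above 10; inconclusive = replicate mean below 10 yet half the replicates above 10; inactive = over half of replicates below 10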;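 also: wells of about 30 µL received 50 nL stock; many hits fall short of the cut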
# MLL AF4-AF9 inh – blocks AF4 peptide binding to human AF9 | AlphaScreen, biotin-AF4 peptide binding to FLAG-AF9 | inhibition, % at 10 µM | hit rate 0.47% among 350,000 | AID 651704;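 active = every replicate reaching a set inhibition limit, whatever the replicate mean, cut at about 25% in these data; inconclusive = mean inhibition reaches that limit but some replicates miss it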;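 also: 0% = plate neutral control median and 100% = total signal loss; the record names both 10 and 1 µM as test concentration; the first replicate is given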
# Target sequence (P42568 whole entry, looked up): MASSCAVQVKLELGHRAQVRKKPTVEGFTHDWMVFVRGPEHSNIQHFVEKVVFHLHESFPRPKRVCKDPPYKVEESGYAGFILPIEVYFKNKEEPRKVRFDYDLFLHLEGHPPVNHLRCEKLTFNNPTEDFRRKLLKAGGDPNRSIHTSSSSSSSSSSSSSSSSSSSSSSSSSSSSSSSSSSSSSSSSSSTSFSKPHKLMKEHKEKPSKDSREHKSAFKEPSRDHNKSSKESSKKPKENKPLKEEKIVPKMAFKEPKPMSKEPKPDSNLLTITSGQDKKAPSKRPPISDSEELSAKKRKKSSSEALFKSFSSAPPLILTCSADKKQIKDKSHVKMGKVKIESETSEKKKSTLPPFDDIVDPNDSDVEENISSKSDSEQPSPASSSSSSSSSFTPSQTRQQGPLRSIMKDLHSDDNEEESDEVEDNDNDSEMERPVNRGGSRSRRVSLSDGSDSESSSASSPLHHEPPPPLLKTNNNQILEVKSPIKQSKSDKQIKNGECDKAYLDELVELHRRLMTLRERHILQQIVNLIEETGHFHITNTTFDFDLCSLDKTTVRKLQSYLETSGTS
# UCH37 DUB inh – human UCH37 deubiquitinating enzyme inhibition | Q9Y5K5 | purified proteasome/UCH37, Ub-AMC cleavage fluorescence | inhibition, % (concentration not given with the values) | hit rate 0.33% among 330,000 | AID 588478;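 active = mean of two replicates above 20%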;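 also: 0% = compound-free wells with enzyme and 100% = wells lacking proteasome; stock transfer was 100 nL into about 20 µL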
# Target sequence (Q9Y5K5 whole entry, looked up): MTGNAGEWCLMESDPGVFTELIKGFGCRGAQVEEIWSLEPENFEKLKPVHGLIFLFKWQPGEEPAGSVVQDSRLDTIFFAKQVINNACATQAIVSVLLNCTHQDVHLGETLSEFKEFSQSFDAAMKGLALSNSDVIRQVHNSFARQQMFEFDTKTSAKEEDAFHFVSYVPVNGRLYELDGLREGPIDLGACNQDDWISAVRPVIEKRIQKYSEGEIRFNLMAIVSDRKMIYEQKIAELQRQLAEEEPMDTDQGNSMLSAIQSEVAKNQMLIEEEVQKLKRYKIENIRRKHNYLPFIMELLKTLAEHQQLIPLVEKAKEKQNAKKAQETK
#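 Signal – fluorescence, ex 355 nm, em 460 nm · System – Proteasome-bound UCH37 · Input – 0.15 nM proteasome as dispensed · Timing – 30 min preincubation with enzyme, 25 min cleavage at room temperature · Read-out basis – percent inhibition of cleavage signal versus uninhibited and no-proteasome wells · Medium – Tris-HCl pH 7.4 with ATP-MgCl2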
# T cruzi repl – blocks replication of Trypanosoma cruzi; inhibition, % (no concentration beside the values); T. cruzi beta-gal in NIH3T3, luminescence, 90 h; hit rate 1.4% among 300,000;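 active = mean inhibition across valid replicates above about 55%, limit read from the data; inconclusive = mean below that limit but half or more replicates reach it; inactive = mean below it, under half of replicates reach it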;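 also: signal also drops with host cell toxicity which is not excluded here; 0% = plate median of DMSO wells and 100% = zero luminescence signal; higher percent means less beta-gal luminescence so fewer parasites; stock transfer was 50 nL into about 50 µL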
# Ecoli rRNA inh – selective bacterial rRNA inhibition in E. coli | E. coli WT GFP vs humanized-ribosome RFP mutants, fluorescence, 24 h; hits give low values; DMSO median 0, no signal -100 | GFP signal change (wild-type ribosome), % (concentration not given with the values) | hit rate 1.6% among 350,000;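 active = significant combined selectivity score with lowered wild-type GFP, culture density cut under 30%, mutant RFP and density less affected; inactive = any of these conditions unmet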; also: one replicate is shown; some compounds called inactive have numbers as strong as hits
# Ecoli growth – blocks Escherichia coli growth; hit rate 0.21% among 330,000; OD600 absorbance (no concentration beside the values); AID 1053175; OD600, 23 h; hits give low values;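 active = OD600 absorbance below the run mean of sample wells minus 3.6 SD, in any replicate, cut at about 0.56 in these data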;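 also: stock transfer was 300 nL into about 60 µL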
# Ecoli rRNA inh OD600 – also measured in Ecoli rRNA inh; calls as there; OD600 change, %; measured here: OD600 growth;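 optical density of the mix in the first replicate; 0 = DMSO median and -100 = no signal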
# Ecoli rRNA inh RFP – recorded beside Ecoli rRNA inh, whose call it bears; RFP signal change, %; measured here: RFP humanized mutant strains;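 first replicate; 0 = DMSO median and -100 = no signal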
# An asterisk follows results filed as active; i = inactive; ? = inconclusive; . = no result given.
SMILES,FGF22 binding,Beta apoptosis,A1 inh,MLL AF4-AF9 inh,UCH37 DUB inh,T cruzi repl,Ecoli rRNA inh,Ecoli rRNA inh OD600,Ecoli rRNA inh RFP,Ecoli growth
Cc1ccc(OC(C)C(=O)N2CC(=O)Nc3ccccc32)c(C)c1 (centres undefined),i,-1,-0.5,-0.7,2.5,2,1,2,3.6,0.66
N#Cc1ccccc1OCC(=O)OCC(=O)N1CCN(C(=O)c2ccco2)CC1,i,2,-0.8,-2.2,-3.7,4,6,6,-6.7,0.65
Cc1nc(-c2ccc(C(=O)N3CCOCC3)cc2)cs1,.,-1,-4.0,.,0.6,-4,.,.,.,0.77
COc1ccc(C(=O)Nc2nnc(C3=COCCO3)o2)cc1,i,0,-0.4,-3.4,5.9,-10,-24,-24,-6.1,0.71
CCOC(=O)c1sc(NC(=O)CSc2nc3ccccc3s2)c(C(=O)OCC)c1C,.,2,-0.4,.,-1.6,-25,.,.,.,0.72
Cc1nnc(SC(C)C(=O)Nc2ccc(S(=O)(=O)NC3CCCCC3)cc2)s1 (centres undefined),i,7,-0.3,-8.8,-0.1,7,-7,5,1.4,0.7
O=C(CSCc1c[nH]c(=O)[nH]c1=O)OCC(=O)c1ccc(Br)cc1,.,-7,2.3,-1.4,3.4,-14,12,1,3.1,0.68
O=C(NC12CC3CC(CC(C3)C1)C2)c1ccc(-c2ccccc2Cl)o1,.,16,0.0,.,-1.8,?,.,.,.,0.76
Cc1onc(-c2ccccc2)c1CNC(=O)Nc1ccc(F)cc1F,i,-2,0.0,-9.7,1.8,7,-7,1,7.5,0.67
CCOC(=O)c1ccc2nc(NC(=O)c3ccco3)sc2c1,.,16,1.1,.,-2.5,-18,.,.,.,0.7
C=CCn1c(=O)c(C(=O)Nc2ncccc2O)c(O)c2ccccc21,i,.,-0.7,-0.2,.,-1,2,-1,1.3,.
COc1cccc(CC(=O)NC2CCSc3ccccc32)c1 (centres undefined),i,-1,0.3,3.3,2.4,-4,8,15,1.6,0.7
Cc1nn(C)c(Oc2cccc(Cl)c2)c1C(=O)Nc1ccc(F)cc1F,.,-3,0.3,.,3.5,9,.,.,.,0.74
CCOc1ccc(CCNC(=O)c2cc3sccc3n2CC)cc1OCC,.,0,0.7,.,1.3,22,.,.,.,0.71
CCCS(=O)(=O)NCCc1cc2ccc(C)cc2[nH]c1=O,.,-7,0.6,.,-2.1,-3,.,.,.,0.67
O=C(/C=C/c1ccc(O)cc1)c1ccc(NC2=C(N3CCCCC3)C(=O)c3ccccc3C2=O)cc1,i,10,-2.0,-30,22*,17,-37*,-19*,-2.2*,0.67
CCN(c1cccc(C)c1)S(=O)(=O)c1ccc(-c2ccc(=O)[nH]n2)o1,i,.,-1.7,0.6,-7.8,-6,23,12,3.1,0.7
Cc1ccc(C)c(NS(=O)(=O)c2c(C)nc3sccn3c2=O)c1,i,5,0.1,-8.7,7.0,-5,6,3,-0.7,0.7
CC(/C=C/C=C/c1ccccc1)=N/NC(=O)CNc1ccc(C)cc1,i,7,-0.5,0.9,.,-3,9,6,5.8,.
CSCC[C@H](NC(=O)C1CCN(S(=O)(=O)c2ccc(C)cc2)CC1)C(=O)NCc1ccco1,.,3,0.1,.,0.3,2,.,.,.,0.73
CC(/C=N\NC(=O)c1cccnc1)c1ccccc1 (centres undefined),i,-4,0.5,3.6,.,1,15,9,12,.
Cc1n[nH]c(C)c1CCOc1ccc(C(C)C)cc1,.,9,-0.1,.,1.4,12,.,.,.,0.65
CCCCSc1nsc(NC(C)=O)n1,.,2,-3.1,.,4.7,47,.,.,.,0.69
COc1cc(OC)cc(C(=O)NNC(=O)CCCOc2ccccc2)c1,i,-7,-0.8,-3.6,-1.9,.,14,10,4.6,0.71
CC1CN(C(=O)c2ccccc2Oc2ccccc2)CC(C)O1 (centres undefined),i,2,-0.6,0.7,1.7,-11,10,10,-2.4,0.72
S=C(Nc1ccc2c(c1)OCO2)NC1CCN(Cc2ccccc2)CC1,.,-5,1.4,.,5.3,46,.,.,.,0.72
CCOC(=O)CCCn1c(C)nc(=O)c(-c2ccccc2)c1C,.,0,0.3,.,-1.1,-19,.,.,.,0.73
CC(=O)c1c(C(C)=O)c(C)n(NC(=O)c2ccc(Cl)cc2)c1C,.,-6,-0.2,.,5.4,-17,.,.,.,0.73
Nc1ccc2ccccc2c1C(=O)c1ccccc1,.,.,.,-40,2.8,.,-9,-3,-4.5,0.67
CCC(C)c1ccccc1NC(=O)COC(=O)c1ccc2[nH]c3c(c2c1)CCCC3 (centres undefined),.,7,0.0,.,-10,0,.,.,.,0.74
CC(=O)NS(=O)(=O)c1ccc(N=NN2CCOCC2)cc1,i,-4,0.1,-6.1,5.3,-10,-2,7,-2.5,0.69
COc1ccc2ccccc2c1/C=N/NC(=O)c1nnn(-c2nonc2N)c1C(C)C,i,3,-0.1,4.4,.,-16,0,0,-0.2,.
c1cc2c3c(cccc3c1)NC1(CCC3(CC1)Nc1cccc4cccc(c14)N3)N2,i,27,0.1,-7.9,.,59*,-1,-9,2.7,.
O=C1c2ccccc2C(=O)C12OC2c1cccc2ccccc12 (centres undefined),i,-1,0.0,-10,24*,-21,12,-1,0.4,.
COc1cc(-c2cn[nH]c2N)cc(OC)c1OC,i,0,0.2,7.9,4.5,3,.,.,.,0.73
O=C(OCc1cc(=O)n2ccsc2n1)c1ccccc1NCCO,i,-8,-1.8,-1.3,-19,.,7,10,2.2,0.66
Cc1ccccc1NC(=O)CSc1[nH]c(=O)cc(C)c1C#N,i,1,0.0,0.1,5.2,1,0,-13,-3.1,0.68
C=CCn1c(SCC(=O)NC2(C#N)CCCCC2)nnc1-c1ccncc1,.,-3,0.3,-4.8,-1.1,-10,5,8,0.9,0.68
CN(C)CCC=C1c2ccccc2CCc2ccccc21,i,.,.,-0.2,22*,.,.,.,.,0.64
Cc1sc2ncnc(OCC(=O)NCc3cccs3)c2c1C,.,-6,0.2,.,0.4,3,.,.,.,0.79

# Complete entries from above. Order of screens: FGF22 binding, Beta apoptosis, A1 inh, MLL AF4-AF9 inh, UCH37 DUB inh, T cruzi repl, Ecoli rRNA inh, Ecoli rRNA inh OD600, Ecoli rRNA inh RFP, Ecoli growth
# CCCS(=O)(=O)NCCc1cc2ccc(C)cc2[nH]c1=O in the list: ., -7, 0.6, ., -2.1, -3, ., ., ., 0.67
# COc1cccc(CC(=O)NC2CCSc3ccccc32)c1 (centres undefined) in the list: i, -1, 0.3, 3.3, 2.4, -4, 8, 15, 1.6, 0.7
# CCOC(=O)CCCn1c(C)nc(=O)c(-c2ccccc2)c1C in the list: ., 0, 0.3, ., -1.1, -19, ., ., ., 0.73
# COc1ccc(C(=O)Nc2nnc(C3=COCCO3)o2)cc1 in the list: i, 0, -0.4, -3.4, 5.9, -10, -24, -24, -6.1, 0.71

# Going on with the list:
SMILES,FGF22 binding,Beta apoptosis,A1 inh,MLL AF4-AF9 inh,UCH37 DUB inh,T cruzi repl,Ecoli rRNA inh,Ecoli rRNA inh OD600,Ecoli rRNA inh RFP,Ecoli growth
O=C(O)CCC(=O)Nc1nnc(C(F)(F)F)s1,.,2,0.1,.,6.0,.,.,.,.,0.77
CC(C)(C)C(=O)NCCn1ccc2ccccc21,i,1,0.2,4.2,2.2,11,4,6,8.8,0.76
N=c1sccn1CC(=O)Nc1ccccc1Oc1ccccc1,.,-3,0.1,.,-1.5,?,.,.,.,0.71
Cc1ccc(C)c(-n2c(Cc3cc(=O)[nH]c(=O)[nH]3)nnc2SCC(=O)NCC2CCCO2)c1 (centres undefined),.,-1,0.2,.,0.0,.,.,.,.,0.7
Cc1ccc(C(C)(C)C)cc1S(=O)(=O)NC(=O)c1ccccc1,i,5,-0.1,-1.4,1.2,10,-14,-16,-6.6,0.71
Cc1c(C(=O)N2CC(C)OC(C)C2)sc2nc(-c3ccc(F)cc3)cn12 (centres undefined),.,-1,2.3,.,0.7,0,.,.,.,0.69
CSCC[C@H](NC(=O)C1CCCC1)c1nc2ccccc2[nH]1,i,-3,0.5,0.7,5.4,5,8,7,-0.7,0.71
CC1CCN(C(=O)COC(=O)[C@H](C)NS(=O)(=O)/C=C/c2ccccc2)CC1,.,-4,-0.7,.,4.5,-6,.,.,.,0.77
COc1cccc(C(=O)Nc2nnc(-c3ccccc3)s2)c1OC,i,-7,.,-12,0.4,7,4,10,1.0,0.67
O=C(NCc1ccccc1Cl)c1cccc(C(F)(F)F)c1,i,9,0.3,-3.6,-14,-15,-21,-55,2.4,0.66
CN(C)S(=O)(=O)c1ccc(/C(O)=C2/C(=O)C(=O)N(CCCN3CCOCC3)C2c2ccncc2)cc1 (centres undefined),i,-3,2.3,-33,4.4,-5,7,0,4.7,0.67
COc1ccc(Br)cc1CNC(=O)C1CCCN(S(C)(=O)=O)C1 (centres undefined),.,-3,-0.3,.,-2.3,7,.,.,.,0.71
O=C1c2cccc3cccc(c23)C(=O)N1Cc1cccnc1,i,-2,-0.8,0.7,-49,3,11,8,-0.1,0.67
CCOC(=O)N1CCN(C(=O)c2cc(C)c3c(C)nn(-c4ccccc4)c3n2)CC1,.,-2,0.1,.,0.2,-9,.,.,.,0.69
Cc1ccc(-c2noc(CNS(=O)(=O)c3ccccc3)n2)cc1,i,-5,-0.8,-0.5,-0.6,-19,-8,-6,3.4,0.72
O=C1CC(N2CCOCC2)C(=O)N1Cc1ccc(N2CCCC2=O)cc1 (centres undefined),.,0,0.0,.,1.7,1,.,.,.,0.72
CCN(CC(=O)Nc1cc(Cl)ccc1-n1cncn1)Cc1nc2ccccc2c(=O)[nH]1,i,-6,0.7,-7.3,1.1,.,-5,-6,5.2,0.7
O=C(Nc1ccc(F)cc1)c1ccc(S(=O)(=O)NCc2cccnc2)cc1,i,9,-0.1,3.6,3.7,-3,.,.,.,0.63
CCOC(=O)c1nn(-c2cccc(Cl)c2)c(C)c1C(C)=O,.,-5,-0.3,.,1.1,-9,.,.,.,0.71
N#C/C(C(=O)N1CCCCC1)=C1/N=C(N)c2ccccc21,.,-3,0.5,-1.4,9.0,-19,-4,-13,-1.0,0.68
COC(=O)COc1ccc(S(=O)(=O)N2CCCCCC2)cc1C,.,-3,-0.7,-0.1,5.3,-4,-3,0,-2.2,0.7
CCOC(=O)c1cnn(CCOC(=O)C(C)(C)C)c1NC(=O)C(C)(C)C,.,-5,0.3,.,5.4,-11,.,.,.,0.68
COCCCNC(=O)Cn1c(=O)n(CCCCCC(=O)Nc2ccccc2)c(=O)c2sccc21,.,-6,-0.2,.,-1.5,21,.,.,.,0.64
O=C(Nc1cc(C(=O)N2CCCC2)ccc1N1CCCC1)C1CC1,.,-3,?,.,1.7,0,12,9,0.3,0.67

# Screening data (PubChem BioAssay)

# Not all compounds are listed; count on the stated rates, not on these rows.
